NS1 function inh = inhibitors of influenza NS1 protein function. Potency, µM (highest dose often 46.1 µM), inactives show at the top dose activity, positive = more growth. S. cerevisiae slowed by influenza A NS1, growth recovery by OD600. 270,000 compounds, 0.4% hits; note: actives are rising curves; nearly all actives have a fitted effect of over 50% in size
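A cell-based growth assay was used: compounds that relieve NS1-induced slow growth of budding yeast raise OD600. Assay medium was yeast nitrogen base with ammonium sulphate and -URA supplement, pH 6.0, with 2% galactose.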
Cruzain inh noDet = blocks cruzain activity in detergent-free assay. purified cruzain, Z-FR-AMC fluorescence, no detergent. Potency, µM, for inactives: max response, negative = inhibition, actives largely listed as inhibitors. 200,000 compounds, 2.3% hits; active = well fitted curve in the direction sought with a large enough effect; inconclusive = small, poorly fitted or top-dose-only effect, or another doubt; inactive = no such curve, though single readings can be large; an effect the other way counts as inactive or inconclusive;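 note: plate controls were enzyme without inhibitor for no effect and buffer without enzyme for full effect; nearly all actives have a fitted effect of over 40% in size; top concentration of the series not given in the record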
Target sequence (P25779 123-467 limits assumed): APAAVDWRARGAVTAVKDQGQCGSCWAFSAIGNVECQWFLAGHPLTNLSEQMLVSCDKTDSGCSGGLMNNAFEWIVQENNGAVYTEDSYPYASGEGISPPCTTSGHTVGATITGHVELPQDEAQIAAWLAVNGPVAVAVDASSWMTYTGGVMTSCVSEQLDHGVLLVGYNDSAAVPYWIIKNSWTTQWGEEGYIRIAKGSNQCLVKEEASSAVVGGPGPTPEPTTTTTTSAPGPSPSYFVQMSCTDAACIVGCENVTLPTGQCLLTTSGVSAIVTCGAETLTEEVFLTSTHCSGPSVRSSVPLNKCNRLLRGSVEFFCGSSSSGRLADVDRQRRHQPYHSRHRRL
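Purified cruzain at 1.5 nM, pre-incubated 15 min with compound at room temperature in 100 mM sodium acetate pH 5.5, 5 mM DTT, 0.00005% Triton X-100. Reaction started with 2 uM Z-FR-AMC; AMC fluorescence increase over 60 s gives rate.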
2A StopGo = lowers the luciferase signal of an FMDV 2A StopGo reporter; human cells with a luciferase reporter of 2A StopGo recoding; control for the full effect not named in the record; Potency, µM (doses to about 57.9 µM), for inactives: at the top dose signal change, negative = less light; 410,000 compounds, 1.2% hits; active = well fitted falling curve with a large enough effect; inconclusive = small, poorly fitted or top-dose-only effect; inactive = no such curve, though single readings can be large or run the other way; tested in HEK293T cells; note: % is set by controls: 0 for no effect and ±100 for the full control effect; nearly all actives have a fitted effect of over 45% in size; luciferase light after 4 h
Cruzain Triton = blocks cruzain activity in presence of Triton detergent. purified cruzain, Z-FR-AMC fluorescence, 0.01% Triton. 200,000 compounds, 0.43% hits. P25779. Potency, µM, for the others: max response, negative = inhibition, usual class: inhibitors; active = well fitted curve in the direction sought with a large enough effect; inconclusive = small, poorly fitted or top-dose-only effect, or another doubt; inactive = no such curve, though single readings can be large; an effect the other way counts as inactive or inconclusive;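 note: plate controls were neutral wells for no effect and buffer without enzyme for full effect; nearly all actives have a fitted effect of over 40% in size; top concentration of the series not given in the record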
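Purified cruzain (1.5 nM final) was preincubated with compounds for 15 min at room temperature in 100 mM sodium acetate pH 5.5, 5 mM DTT, 0.01% Triton X-100. Reaction started with 2 uM Z-FR-AMC; AMC fluorescence change over 60 s gave activity.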
RE007 growth inh = less growth of the S. pombe RE007 Vpr strain; S. pombe RE007 Vpr strain, BacTiter-Glo ATP luminescence, 24 h; control for the full effect not named in the record; Potency, µM (highest dose often 92.2 µM), without a hit: top-dose activity change, negative = less growth; 360,000 compounds, 0.21% hits; AID 651644; active = well fitted falling curve with a large enough effect; inconclusive = small, poorly fitted or top-dose-only effect; inactive = no such curve, though single readings can be large or run the other way;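 note: % is set by controls: 0 for no effect and ±100 for the full control effect; nearly all actives have a fitted effect of over 50% in size; the assay follows cell death caused by Vpr and the record does not say whether a fall means rescue or toxicity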
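Fission yeast strain RE007, carrying one chromosomally integrated HIV-1 vpr copy, was seeded at OD 0.01 in PMG+AL medium with 23 nL pinned compound. After 24 h at 30 °C and 99% humidity, viability was read by BacTiter-Glo luminescence.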
MARV entry inh = blocks Marburg virus binding to or entry into cells; Marburg virus pseudotyped entry inhibition, cell reporter; control for the full effect not named in the record; about a third of the inactives were read at about 46 µM; Potency, µM (top dose mostly 37.8 µM), for the others: at the highest dose activity change, negative = inhibition, actives largely listed as inhibitors; 300,000 compounds, 1.8% hits; AID 540276; active = well fitted inhibition curve with a large enough effect; inconclusive = small, poorly fitted or top-dose-only effect, or effect the other way; inactive = flat fitted curve, though single readings scatter; tested in HEK293 cells; about a fifth of its hits are not listed in these tables; note: % is set by controls: 0 for no effect and ±100 for the full control effect; luciferase read-out
Lassa entry inh = blocks Lassa virus binding to or entry into cells; Lassa virus pseudotype entry inhibition, cell reporter; control for the full effect not named in the record; Potency, µM (top dose mostly 37.9 µM), inactives show top-dose activity change, negative = inhibition, usual class: inhibitors; 300,000 compounds, 1.2% hits; active means well fitted inhibition curve with a large enough effect; inconclusive means small, poorly fitted or top-dose-only effect, or effect the other way; inactive means flat fitted curve, though single readings scatter; tested in HEK293 cells; note: % is set by controls: 0 for no effect and ±100 for the full control effect; nearly all actives have a fitted effect of over 50% in size; luciferase read-out
SARS PLP yeast = SARS-CoV PLP inhibition in yeast; S. cerevisiae expressing SARS-CoV PLpro, growth rescue; control for the full effect not named in the record; Potency, µM (doses to about 32.9 µM), for the others: top-dose activity, positive = growth rescue; 330,000 compounds, 0.19% hits; AID 485353; note: 0% is about no effect; nearly all actives have a fitted effect of over 55% in size; growth read by luminescence after 48 h
An asterisk follows results filed as active; u = inconclusive; x = no result given; [ ] = remark or other dose. Unless noted, calls come from the whole dose curve; as a rule, active means well fitted rising curve with a large enough effect; inconclusive means small, poorly fitted or top-dose-only effect; inactive means no such curve, though single readings can be large or run the other way. Potency is the fitted concentration of half-maximal effect.

SMILES	NS1 function inh	Cruzain inh noDet	2A StopGo	Cruzain Triton	RE007 growth inh	MARV entry inh	Lassa entry inh	SARS PLP yeast
COc1ccc(OC)c(NC(=O)C(=O)NNC(=O)COc2ccc(Br)cc2C)c1	2%	x	-24%	x	-4%	x	x	-1%
O=C(Nc1ccccc1C(=O)NCc1ccc(Cl)cc1)c1ccco1	-43%	8%	-24%	-0.3%	-16%	u	-18%	1%
COc1ccc(OC)c(C2CC(c3ccc(NS(C)(=O)=O)cc3)=NN2C(=O)c2ccccc2)c1 (stereo not drawn)	x	x	-8%	x	8%	u	u	1%
Cn1c(=O)[nH]c(=O)c2c1nc(Br)n2CCCCSc1nc2ccccc2o1	1%	-1%	35µM*	-0.7%	4%	u	-2%	2%
Cc1c(N2C(=O)/C(=C/c3ccc(N(C)C)cc3)N(C)C2=S)c(=O)n(-c2ccccc2)n1C	x	x	-11%	x	1%	u	-2%[46.1 µM]	x
Cc1cc(C)n2nc(SCC(=O)c3cc(C)n(CC4CCCO4)c3C)nc2n1 (stereo not drawn)	x	x	u	x	-5%	15%[46.1 µM]	-27%	2%
CCCC(C)NC(=O)COC(=O)c1ccc(Cl)c(S(N)(=O)=O)c1 (stereo not drawn)	u	-10%	1%	4.2%	3%	23%	1%	-5%
O=C(Nc1cccc(Cl)c1)c1cc(N=Nc2ccc([N+](=O)[O-])cc2Cl)ccc1O	-6%	x	u	x	-20%	x	x	-5%
COc1ccc(-c2c([C@H]3[C@H]4C=CC[C@@H](C)[C@@H]4C(=O)N3Cc3ccccc3)ccc3ccccc23)cc1	-4%	x	u	x	0%	x	x	4%
CC(=O)Nc1ccc(SCCC2CCCCN2C)cc1 (stereo not drawn)	3%	x	-12%	x	0%	3%[46.1 µM]	28%	1%
COc1ccc(N2CCN(CC(=O)N3N=CCC3c3ccccc3)CC2)cc1 (stereo not drawn)	-4%	4%	-12%	-1.6%	11%	1%	-18%	4%
O=C(NNc1cc(Cl)ccc1Cl)c1c(F)cccc1Cl	-5%	x	-7%	x	-30%	u	2%	-2%
CCc1cc2ccc(OC)cc2nc1SCC(=O)NNC(=O)c1ccco1	0%	x	-11%	x	-7%	-18%[46.1 µM]	10%[46.1 µM]	0%
COc1ccc(CNC(=O)CN2c3ccccc3S(=O)(=O)c3ccccc32)cc1	16%	x	-8%	x	1%	x	x	-2%
COc1ccc(OCCCn2ccnc2)cc1	3%	x	5%	x	2%	-3%[46.1 µM]	26%[46.1 µM]	2%
CCn1c(CNC(=O)c2ccc3c(c2)OCO3)nnc1SCC(=O)Nc1ccccc1F	7%	x	9%	x	5%	14%[46.1 µM]	x	3%
C/C(Cc1ccccc1)=N\NC(=O)CNC(=O)Cc1ccc(Cl)cc1	-5%	x	-13%	x	-8%	0%	16%	-1%
O=C1NC2(CCCCC2)C(=O)N1c1cccc(Cl)c1	0%	x	9%	x	-16%	x	x	-1%
COc1cccc(NC(=O)c2nnn(Cc3cccc(C(F)(F)F)c3)c2N)c1	x	7%	4%	2.9%	x	u	2%[46.1 µM]	x
O=S(=O)(/N=C(/c1ccccc1Cl)N1CCOCC1)c1ccccc1	-4%	-5%	-13%	0.3%	0%	2%	u	2%
O=C(N1CCOCC1)N1CCN(C(c2ccccc2)c2ccccc2)CC1	-16%	9%	-11%	8.5%	5%	-9%	-11%	2%
CCOCCCNC(=O)C(c1ccc(OC)cc1)N(Cc1ccc2c(c1)OCO2)C(=O)c1ccc(NC(C)=O)cc1 (stereo not drawn)	x	u	-13%	-1.5%	x	-1%[46.1 µM]	u	x
COC(=O)C1=C(C(=O)OC)C2c3ccccc3C1c1ccccc12	x	x	-26%	x	10%	-17%	6%	x
CCC(C)OC(=O)C1=C(C)NC(=O)CC1c1ccccc1OC (stereo not drawn)	-6%	4%	-20%	-3.4%	15%	-25%	u	2%
Cc1onc(-c2c(F)cccc2Cl)c1C(=O)NNC(=O)C1CCN(Cc2cccc(F)c2)CC1	2%	x	-23%	x	1%	u	-3%	1%
Next results
SMILES	NS1 function inh	Cruzain inh noDet	2A StopGo	Cruzain Triton	RE007 growth inh	MARV entry inh	Lassa entry inh	SARS PLP yeast
Cc1ccc(Cl)cc1N1CCN(S(=O)(=O)c2ccc(-c3cnc(C4CC4)o3)cc2)CC1	x	-2%	-3%	-1.9%	x	x	x	x
CCCOc1ccc(C2C(C(=O)/C=C/c3ccco3)=C(O)C(=O)N2CCN2CCOCC2)cc1OC (stereo not drawn)	x	x	6%	x	8%	7%[46.1 µM]	-13%	1%
CS(=O)(=O)N1N=C(c2cccs2)CC1c1ccccc1 (stereo not drawn)	-1%	x	52%[activator]	x	-4%	x	x	1%
CC(C)C(NC(=O)c1ccco1)C(=O)NCC(c1ccco1)N1CCCCC1 (stereo not drawn)	-13%	u	-16%	14µM*	-9%	-23%	9%	-2%
O=C(Nc1ccc(F)cc1)Nc1nnc(Cc2ccccc2F)s1	10%	x	-24%	x	2%	-16%	u	-1%
Cc1nnc(N/N=C/C(C)c2ccccc2)[nH]c1=O (stereo not drawn)	8%	x	-2%	x	-9%	-1%[46.1 µM]	12%	-1%
O=C1CCCC(O)=C1N=Nc1c(Cl)cc(Cl)cc1Cl	12%	-5%	2%	-12%	-19%	u	-17%	-19%
O=C1CCC(C(=O)Nc2cccc3ccccc23)N1 (stereo not drawn)	6%	-7%	-10%	0.3%	0%	u	u	3%
Cc1ccc(C(=O)N2CC3(C(C)C)CN(C(=O)c4ccc(C)cc4)CC(C(C)C)(C2)C3=O)cc1	3%	-2%	-11%	2.4%	13%	3%	-17%	2%
N/C(COc1ccc(F)cc1)=N\NC(=O)c1cccnc1Oc1ccccc1	-10%	0%	9%	4.8%	-1%	23%[46.1 µM]	7%	7%
C=CCn1c(SCC(=O)Nc2c(C)n(C)n(-c3ccccc3)c2=O)nnc1-c1cccnc1	x	x	-2%	x	-13%	-2%	-2%	0%
COC(=O)c1[nH]c2cc(OC)ccc2c1NC(=O)CN1CCN(c2cccc(C)c2)C(C)C1 (stereo not drawn)	-15%	15%	u	-4.8%	-5%	16µM*	u	-22%
Cn1c(=O)[nH]c(=O)c2c1nc(N1CCCCCC1)n2CCOc1ccccc1	2%	x	u	x	9%	-5%[46.1 µM]	-13%[46.1 µM]	0%
COC(=O)C1=C(C)NC(=O)NC1c1ccc(-c2ccc(Cl)cc2)o1 (stereo not drawn)	2%	x	-27%	x	4%	x	x	1%
Cn1c2ccccc2c(=O)c2c(=O)n(Cc3ccco3)c(COc3ccccc3)nc21	u	-25%	u	-12%	-6%	u	u	7%
COc1ccc(C2=Nc3ccccc3OC2)cc1	-36%	-6%	70%[activator]	-12%	-21%	23%	u	-16%
CC1Sc2ccc(S(=O)(=O)N3CCC(C(=O)Nc4ccc(Cl)cc4)CC3)cc2NC1=O (stereo not drawn)	-13%	x	14µM*	x	0%	x	x	0%
CCCCNS(=O)(=O)c1ccc(NC(=O)c2c(-c3ccccc3Cl)noc2C)cc1	1%	-22%	24%	-1.6%	1%	u	-19%[14.3 µM]	0%
Cc1cc(NC(=O)C2CCCN(S(=O)(=O)c3cccc4nonc34)C2)ccc1Br (stereo not drawn)	x	-10%	-22%	-0.5%	x	u	20%[46.1 µM]	x
CCOC(=O)c1c(-c2ccccc2Cl)cn2ccccc12	-17%	13%	-6%	-7.0%	-18%	u	13µM*	-31%
CCCCNCc1cc(Cl)c(OCCC)c(OCC)c1	-14%	-2%	-21%	-4.2%	-3%	u	52%[14.3 µM]	u
CCN(CC)c1ccc(NC(=O)CCCCCN2C(=O)c3ccccc3C2=O)cc1	-7%	-6%	-27%	1.0%	17%	-2%	-24%	-5%
CCOC(=O)c1c(NC(=O)c2cc3nc(-c4ccccc4)cc(C(F)(F)F)n3n2)sc2c1CCC(C)C2 (stereo not drawn)	x	1%	3%	1.6%	x	x	1%[46.1 µM]	x
Cn1c(SCC(=O)N2CCCc3ccccc32)nnc1-c1c[nH]c2ccccc12	-37%	-11%	-16%	-2.2%	-8%	-1%	-3%	1%
CCSCC1COC(c2cccn2Cc2ccc(C)cc2)=N1 (stereo not drawn)	-11%	-5%	11%	-2.4%	-9%	-17%	13%	5%
The list continues:
SMILES	NS1 function inh	Cruzain inh noDet	2A StopGo	Cruzain Triton	RE007 growth inh	MARV entry inh	Lassa entry inh	SARS PLP yeast
O=C(COC(=O)c1ccc(S(=O)(=O)N2CCCC2)cc1)NCc1ccc(F)cc1	7%	-10%	16%	4.2%	5%	u	0%	1%
CC(=O)Nc1cc(-c2nc3ccccc3s2)ccc1C	x	-11%	49%[activator]	-1.7%	x	x	10%[46.1 µM]	x
CCOC(=O)Cc1csc(NC(=O)c2ccc(F)cc2)n1	-40%	x	-30%	x	-10%	x	x	0%
CC(C)c1ccc(/C=N/NC(=O)CCNC(=O)c2ccccc2)cc1	-7%	x	-9%	x	4%	14%[46.1 µM]	u	18%
COc1cccc(Cc2nc3ccccc3nc2SCC(=O)Nc2cc(OC)ccc2OC)c1	x	u	-12%	0.8%	x	x	-12%[46.1 µM]	x
COc1ccc(S(=O)(=O)c2cn(CC(=O)Nc3cc(C)ccc3C)c3ccccc3c2=O)cc1	x	-5%	-5%	0.1%	x	12%[46.1 µM]	0%[46.1 µM]	x
O=C(Nc1cccc(F)c1)NC1(C(=O)N2CCOCC2)CCCCC1	x	x	-13%	x	-2%	3%	4%	0%
CC1(C(=O)NCCc2c[nH]c3ccccc23)C=CC2(CCCCC2)N1C(=O)c1ccccc1 (stereo not drawn)	7%	x	-18%	x	6%	x	x	-7%
O=C(O)C1=C[C@@H](c2ccc(Br)cc2)C[C@@H](OCc2ccc(CO)cc2)O1	5%	x	-1%	x	7%	x	x	-1%
Cc1oc(-c2ccccc2F)nc1CSCC(=O)NCCc1ccccc1	x	2%	-28%	-0.7%	x	u	-2%[46.1 µM]	x
CCOC(=O)c1cc(S(=O)(=O)NCc2ccco2)cn1C	8%	x	52%[activator]	x	9%	x	x	5%
O=C(CCn1cccc1)Nc1ccc(F)cc1	-6%	4%	25%	3.3%	-5%	u	-5%	-6%
CN(Cc1cccc2ccccc12)C(=O)c1cc(COc2c(F)cccc2F)on1	4%	x	-1%	x	-16%	u	-33%	1%
O=C(CSc1nc2ncc(Br)cc2[nH]1)Nc1ccc2c(c1)OCO2	-7%	-17%	-22%	-5.0%	-1%	u	4%	11%

Compound activity: PubChem BioAssay, National Center for Advancing Translational Sciences (NCATS)
